GALR2 ag = activates the human galanin receptor 2; GALR2-expressing cells, agonist activation read-out; activation, %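 (tested at 5 µM)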; AID 803; hit rate 0.48% among 140,000;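 active means above mean plus 3 SD of all compounds, about 5% in these data, not always enough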;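 further: 0% = vehicle buffer wells and 100% = reference agonist at full effect; tested in CHO reporter cells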
HSV augment = HSV replication enhancement. HSV replication augmentation in cells, fold increase. hit rate 0.005% among 220,000. maximum fold increase;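 active means peak rise of 1.5-fold or more in the series; inconclusive means self-fluorescent or not available for retest; tested in PC3 cells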;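 further: first round at 10 µM; read as green reporter fluorescence; hits show the peak of a series up to 25 µM; 1 = signal of infected wells without compound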
INS promoter inh = TRM-6 insulin promoter activity inhibition | hit rate 0.9% among 130,000 | AID 1273 | inhibition, % at 2 µM | TRM-6 cells (human fetal islet line), insulin promoter-eGFP reporter, imaging; reporter expression induced with tamoxifen;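 active means inhibition above the mean plus 3 SD, with well images judged a real hit on visual review, cut at about 60% in these data, passing the limit was not always enough; inconclusive means inhibition over the cutoff but images rejected on review; inactive means inhibition not above the cutoff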
PKD1 inh = inhibitors of human PKD1 kinase. Q15139. PKD1 kinase fluorescence polarization assay. inhibition, %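 (about 10 µM by stock and volumes)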. hit rate 0.056% among 200,000;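 active means inhibition of 50% or more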;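 further: controls were vehicle for no effect and a reference inhibitor for full effect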
Target sequence (Q15139 whole entry, looked up): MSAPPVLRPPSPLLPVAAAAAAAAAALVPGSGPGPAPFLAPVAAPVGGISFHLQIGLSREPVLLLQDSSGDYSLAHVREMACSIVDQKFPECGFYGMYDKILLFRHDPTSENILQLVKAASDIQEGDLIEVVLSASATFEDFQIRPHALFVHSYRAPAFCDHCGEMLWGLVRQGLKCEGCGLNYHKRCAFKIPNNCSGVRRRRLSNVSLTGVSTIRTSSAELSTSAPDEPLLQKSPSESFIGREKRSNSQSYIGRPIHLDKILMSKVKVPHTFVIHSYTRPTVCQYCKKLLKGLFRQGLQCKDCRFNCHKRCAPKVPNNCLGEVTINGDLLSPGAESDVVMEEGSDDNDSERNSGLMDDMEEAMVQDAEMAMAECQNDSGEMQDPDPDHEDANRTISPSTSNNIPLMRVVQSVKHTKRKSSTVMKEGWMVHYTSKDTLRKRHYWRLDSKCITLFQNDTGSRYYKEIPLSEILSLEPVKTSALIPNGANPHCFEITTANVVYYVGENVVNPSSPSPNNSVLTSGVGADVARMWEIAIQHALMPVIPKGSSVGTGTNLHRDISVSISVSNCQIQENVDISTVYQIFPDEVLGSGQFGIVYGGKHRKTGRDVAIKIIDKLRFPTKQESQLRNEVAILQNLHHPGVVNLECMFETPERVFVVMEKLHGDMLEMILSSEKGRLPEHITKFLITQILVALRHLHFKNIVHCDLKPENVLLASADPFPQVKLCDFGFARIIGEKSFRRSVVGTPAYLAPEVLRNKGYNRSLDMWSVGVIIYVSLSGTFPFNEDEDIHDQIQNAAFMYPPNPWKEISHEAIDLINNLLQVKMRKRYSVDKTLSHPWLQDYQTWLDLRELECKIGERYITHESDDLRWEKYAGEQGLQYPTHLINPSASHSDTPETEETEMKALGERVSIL
RGS16-Gao = modulates binding between human RGS16 and Galphao. binding response (% of control), % at 10 µM. O15492+P09471. bead-based flow cytometry RGS16-Galphao binding, fluorescence; actives lie on both sides. hit rate 0.38% among 220,000;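 active means below 25% or above 175%, edge rows of some plates excepted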;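 further: Galphao activated by GDP with aluminum fluoride before binding; 100% = wells without compound and 0% = beads without RGS; some results beyond the cut were filed as inactive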
INS promoter inh cell count = recorded beside INS promoter inh, whose call it bears; normalized cell count, %; measured here: cell count, toxicity; reference of the scale not given here;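 cells exposed to compound for 48 h; stained nuclei by imaging scaled within each plate; lower means fewer cells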
HSV augment primary fold = recorded beside HSV augment, whose call it bears; fold increase; compound at 10 µM; measured here: primary screen fold increase 10 uM; tested in PC3 cells;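 GFP signal in the first replicate; 1 = infected wells without compound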
The depositor's hits bear a star; i = inactive; ? = inconclusive; / = not tested or not shown.

SMILES	GALR2 ag	HSV augment	HSV augment primary fold	INS promoter inh	INS promoter inh cell count	PKD1 inh	RGS16-Gao
O=C(CNC(=O)c1ccccc1)NCC(=O)OCC(=O)c1ccc([N+](=O)[O-])cc1	-1.2	i	1.1	37	89	4	50
Cc1nnc(SCC(=O)Nc2ccc(S(=O)(=O)N3CCCC3)cc2)n1N	-2.1	i	0.95	/	/	-8	108
COc1ccc(N(CC(=O)Nc2cccc(C(=O)O)c2)S(=O)(=O)c2c(C)noc2C)cc1	-2.3	i	0.88	/	/	-17	102
COC(=O)CN(c1cccc(C(C)=O)c1)S(C)(=O)=O	-1.6	i	0.83	/	/	-16	102
CCCNC(=S)NC1CC2CCC(C1)N2Cc1ccccc1 (stereo not given)	0.6	i	0.95	-11	94	-6	101
COC(=O)/C=C1/N/C(=N\c2nc(C)cc(C)n2)N(c2ccccc2)C1=O	0.0	i	0.96	-7	85	5	105
COc1cc(/C=C(\CC(=O)O)c2nc3ccccc3s2)cc(OC)c1O	/	?	/	-56	64	1	89
O=C(Nc1cccc(-c2nc3cc(Cl)ccc3o2)c1)C1CCCO1 (stereo not given)	-1.4	i	1.1	-346	86	-5	92
Cc1sc2nc(CN3CCCC3)nc(N3CCC(C(N)=O)CC3)c2c1C	-3.0	i	1	-13	92	0	100
CN(C)c1ccc(C(C#N)c2ccccc2)nn1 (stereo not given)	/	i	0.94	/	/	-1	98
CC(C(=O)NCc1ccc2c(c1)OCO2)N(c1ccccc1)S(C)(=O)=O (stereo not given)	-2.8	i	1.1	30	138	1	105
CC(=O)Nc1nnc(COc2ccccc2)s1	/	i	0.99	/	/	-3	103

Molecules above that contain sulfur:
SMILES	GALR2 ag	HSV augment	HSV augment primary fold	INS promoter inh	INS promoter inh cell count	PKD1 inh	RGS16-Gao
Cc1nnc(SCC(=O)Nc2ccc(S(=O)(=O)N3CCCC3)cc2)n1N	-2.1	i	0.95	/	/	-8	108
COc1ccc(N(CC(=O)Nc2cccc(C(=O)O)c2)S(=O)(=O)c2c(C)noc2C)cc1	-2.3	i	0.88	/	/	-17	102
COC(=O)CN(c1cccc(C(C)=O)c1)S(C)(=O)=O	-1.6	i	0.83	/	/	-16	102
CCCNC(=S)NC1CC2CCC(C1)N2Cc1ccccc1 (stereo not given)	0.6	i	0.95	-11	94	-6	101
COc1cc(/C=C(\CC(=O)O)c2nc3ccccc3s2)cc(OC)c1O	/	?	/	-56	64	1	89
Cc1sc2nc(CN3CCCC3)nc(N3CCC(C(N)=O)CC3)c2c1C	-3.0	i	1	-13	92	0	100
CC(C(=O)NCc1ccc2c(c1)OCO2)N(c1ccccc1)S(C)(=O)=O (stereo not given)	-2.8	i	1.1	30	138	1	105
CC(=O)Nc1nnc(COc2ccccc2)s1	/	i	0.99	/	/	-3	103

The list continues.
SMILES	GALR2 ag	HSV augment	HSV augment primary fold	INS promoter inh	INS promoter inh cell count	PKD1 inh	RGS16-Gao
Cc1ccc(NC(=O)/C(C#N)=C/c2ccc(C)s2)c(C)c1	-3.9	i	1.1	13	122	-8	101
CC[n+]1ccc(C)c2cc(P(=O)(c3ccccc3)c3ccccc3)ccc21	/	i	0.99	-41	109	-3	96
Clc1ccccc1CNc1nc2ccccc2n2cnnc12	/	i	0.87	/	/	/	107
COCCNC(=O)C1=C(N)C(C(=O)Nc2ccc(C)c(S(=O)(=O)N3CCCCC3)c2)SC1=Nc1ccc(C)cc1C (stereo not given)	-1.9	i	1	13	117	0	98
CCOC(=O)c1c(C)n(CCNC(C)=O)c2ccc(OC)cc12	-2.0	i	0.99	-314	114	2	101
COc1ccc(NC2=CC(c3ccc(F)cc3)N(c3ccc(OC)cc3)C2=O)cc1 (stereo not given)	-0.2	i	1	19	103	-5	99
CCC1CCC(C(=O)NNC(=O)c2cc(-c3ccco3)[nH]n2)CC1 (stereo not given)	/	i	1.1	/	/	-2	100
CCN(CC(=O)Nc1ccc(N2CCOCC2)cc1)C(=O)c1ccc(C#N)cc1	/	i	0.89	/	/	-5	104
Nc1nc(C(F)(F)F)c(Br)c(=O)n1N	/	i	1	-2	104	4	107
CS(=O)(=O)NCCn1ccc2ccccc21	/	i	1.2	-145	104	0	112
CC1(N2CCCCC2)CC2(O)C(=[N+]1[O-])CCC/C2=N\O (stereo not given)	0.3	/	/	27	76	3	101
N=C1C2=C3Sc4ccccc4N3CCCC2=NN1c1cccc(S(=O)(=O)O)c1	/	i	1.1	/	/	/	-6.4*
O=C(NNc1cc(Cl)ccc1Cl)c1cccs1	/	i	1.3	/	/	/	112
C=CCNC(=O)COC(=O)/C=C/c1cccs1	/	i	0.84	33	134	0	110
CCCOc1ccc(-c2csc(NC(=O)CN3C(=O)CCC3=O)n2)cc1	-0.1	i	1	/	/	-1	74
Cc1onc(-c2ccccc2)c1C(=O)Nc1ccc(OC(C)C)cc1	-1.1	i	0.95	/	/	8	98
COc1ccc(-c2nnc3ccc(SCC(=O)Nc4nc5ccccc5s4)nn23)cc1OC	-0.3	i	0.88	/	/	-1	101
Cc1ccc(Oc2ccc3c(c2)C(=O)N(c2ccc(S(=O)(=O)Nc4nccs4)cc2)C3=O)cc1	-2.3	i	1	22	116	-5	57
COc1cccc(NC(=O)/C=C/c2ccco2)c1	/	i	1	61	101	1	98
O=c1c2ccccc2c(-c2cccc(C(F)(F)F)c2)nn1-c1ccccc1	/	i	1.2	/	/	/	102
CC1CCCC(C)N1Cc1cn2ccccc2n1 (stereo not given)	-2.9	i	0.99	-8	148	-13	99
Cc1ccc2cc(C#N)c(NCc3ccco3)nc2c1	-0.5	i	1.1	/	/	-3	96
Cc1cc(NC(=O)C2CCCN(S(=O)(=O)c3c(C)noc3C)C2)no1 (stereo not given)	-2.6	i	1.1	/	/	-4	78
Cc1cc(C)c(C#N)c(SCC(=O)NC(C)(C)C)n1	-2.1	i	0.88	/	/	-1	93
OC(Cc1cccnc1)(Cc1cccnc1)c1cc2ccccc2[nH]1	0.9	i	1.1	28	88	-7	93
COc1ccc(OC)c2c1CCC2=O	-0.4	i	0.95	12	143	-9	96
Cc1ccccc1OCC(=O)N/N=C/c1cc2ccccc2nc1Cl	-1.7	i	1	/	/	-16	104
Cc1occc1C(=O)N/N=C/C(Br)=C\c1ccccc1	/	i	0.83	/	/	/	98
O=C(Nc1ccccc1)Nc1ccno1	/	i	0.98	/	/	/	100
COc1cc(CNC(C)c2ccccc2)c(Br)cc1OCC(N)=O (stereo not given)	-1.9	i	0.87	10	98	-1	99
CCn1c(=O)cc(OCC(=O)Nc2ccccc2N2CCN(C)CC2)c2ccccc21	-0.4	i	0.81	/	/	-5	107
Cc1ccc(C(=O)Nc2sc3c(c2C(=O)NCc2ccco2)CCCC3)cc1	-1.5	i	1	-457	48	-1	108
O=c1c2ccccc2[nH]c(=S)n1CCN1CCN(Cc2ccccc2)CC1	-1.4	i	0.85	-381	84	-5	107
Cc1cc(C)n(CC2CC(=O)N(c3cc(Cl)cc(Cl)c3)C2=O)n1 (stereo not given)	-0.3	i	1.1	/	/	-1	101
COc1ccc(C(=O)C(CN2CCOCC2)c2ccccc2)cc1F (stereo not given)	-0.6	i	0.56	71*	50*	-3	99
COc1cc(C(=O)NCC(c2ccco2)N2CCCC2)ccc1OCc1c(C)noc1C (stereo not given)	-1.0	i	0.62	/	/	2	126
O=C(COc1ccccc1)NCC1CCCO1 (stereo not given)	-0.9	i	0.98	-23	135	-6	100
CN(C)S(=O)(=O)c1cccc(C(=O)OCC(=O)Nc2ccccc2OC(F)F)c1	-5.0	i	1	-10	133	-4	86
O=C(C1=C(O)C(=O)N(CC2CCCO2)C1c1cccnc1)c1ccco1 (stereo not given)	-2.3	i	0.99	/	/	-13	106
O=C(CSCc1ccc(Cl)cc1)Nc1ccccc1O	/	i	0.95	/	/	0	102
COc1cc2c(cc1OC)C(SC)=NC1(CCCC1)C2	/	i	0.98	/	/	5	104
Cc1cc(-c2nnc(CCC(=O)N(C)Cc3ccsc3)o2)no1	/	i	0.95	25	97	-1	110
O=C(COc1ccccc1)NNC(=S)NC(=O)c1ccccc1	/	i	0.95	36	139	1	107
COc1ccc(C(=O)c2nc3c(n2O)CCCC3)cc1OC	-2.2	i	0.89	8	144	1	122
O=S(=O)(Nc1ccc(S(=O)(=O)Nc2ccccc2)cc1)c1ccccc1	-2.2	i	0.75	3	75	-6	97
Cc1noc(C(=O)NCc2ccc(F)cc2)c1Cl	-0.7	i	1	/	/	0	102
CC(C(=O)NC1CCCC1)N(Cc1ccco1)C(=O)c1snc(C(=O)NC2CCCC2)c1N (stereo not given)	-0.7	i	1	/	/	-5	88
COC(=O)c1ccc(C2C(Oc3ccc(OC)cc3)C(=O)N2CCc2ccc(OC)c(OC)c2)cc1 (stereo not given)	0.9	i	0.95	15	102	-2	101

Of the compounds above, these contain an aryl thioether with sulfur outside any ring.
SMILES	GALR2 ag	HSV augment	HSV augment primary fold	INS promoter inh	INS promoter inh cell count	PKD1 inh	RGS16-Gao
Cc1nnc(SCC(=O)Nc2ccc(S(=O)(=O)N3CCCC3)cc2)n1N	-2.1	i	0.95	/	/	-8	108
COc1ccc(-c2nnc3ccc(SCC(=O)Nc4nc5ccccc5s4)nn23)cc1OC	-0.3	i	0.88	/	/	-1	101
Cc1cc(C)c(C#N)c(SCC(=O)NC(C)(C)C)n1	-2.1	i	0.88	/	/	-1	93

Continued.
SMILES	GALR2 ag	HSV augment	HSV augment primary fold	INS promoter inh	INS promoter inh cell count	PKD1 inh	RGS16-Gao
Cc1nc(SCC(=O)N2CC(=O)Nc3ccccc32)c2c(C)c(C)sc2n1	-0.4	i	0.81	3	117	18	101
N#CC1=C2Nc3ccccc3N2C(=O)NC1(c1ccccc1)C(F)(F)F (stereo not given)	-2.1	i	0.86	9	80	-12	100
CCN(CC)CCOC(c1ccccc1)c1ccc(C)cc1 (stereo not given)	0.4	i	0.91	-35	89	-10	109
NC(=O)c1ccc[n+](CCC[n+]2cccc(C(N)=O)c2)c1	/	i	1	/	/	1	100
O=C(Nc1nnc(-c2ccccc2)o1)Nc1ccccc1Cl	-0.1	/	/	14	76	-14	106
O=C(NNc1nc(-c2ccccc2)cs1)c1ccccc1	-1.2	/	/	10	60	4	105
COc1ccc(C(=O)NC(Nc2ccccc2)C(Cl)(Cl)Cl)cc1 (stereo not given)	-1.8	i	1	/	/	-11	102
CCOc1cc(N2CCOCC2)c(OCC)cc1NC(=O)Cc1ccc(OC)c(OC)c1	-1.1	/	/	0	77	-11	103
O=C(CSc1ncn[nH]1)Nc1ccc(S(=O)(=O)Nc2ncccn2)cc1	/	i	0.94	42	89	-2	104
COc1ccc(Cl)cc1N(CC(=O)NC1CC1)S(=O)(=O)c1ccc(C)c([N+](=O)[O-])c1	/	i	0.93	/	/	-4	100
CCOC(=O)N1CCN(C(=O)CCc2c(C)nc3c(c(C)nn3-c3ccc(C)c(C)c3)c2C)CC1	-0.8	i	0.92	/	/	-15	105

Part of the list above in order of length of the SMILES, ascending:
SMILES	GALR2 ag	HSV augment	HSV augment primary fold	INS promoter inh	INS promoter inh cell count	PKD1 inh	RGS16-Gao
O=C(NNc1nc(-c2ccccc2)cs1)c1ccccc1	-1.2	/	/	10	60	4	105
N#CC1=C2Nc3ccccc3N2C(=O)NC1(c1ccccc1)C(F)(F)F (stereo not given)	-2.1	i	0.86	9	80	-12	100
O=C(CSc1ncn[nH]1)Nc1ccc(S(=O)(=O)Nc2ncccn2)cc1	/	i	0.94	42	89	-2	104
COc1ccc(Cl)cc1N(CC(=O)NC1CC1)S(=O)(=O)c1ccc(C)c([N+](=O)[O-])c1	/	i	0.93	/	/	-4	100

High-throughput results deposited in PubChem BioAssay by several laboratories.
